S aureus helic: S. aureus DNA helicase inhibition. 0.05% of 120,000 active. purified S. aureus helicase, fluorescence unwinding assay; about half of the hits fall short of the stated cut. inhibition, %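 (tested at about 80 µM)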;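 active means both duplicates at 50% or more, or one of them with a favoured structure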;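 further: 0% = mean of negative control wells and 100% = mean of positive control wells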
MgrA-DNA mod: S. aureus MgrA-DNA binding modulation. fluorescence polarization. inhibition, %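 (about 10 µg/mL by stock and volumes)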. 0.13% of 84,000 active. AID 602314;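 active means above 50% in either of two replicates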;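 further: 0% = protein plus DNA without compound and 100% = DNA alone without protein; higher means less MgrA bound to DNA so lower polarization; one replicate is shown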
The depositor's hits bear a star; . = no result given; & = joins results of further samples.

S aureus helic | MgrA-DNA mod | molecule
-2 | -2.2 | Cc1ccccc1N1C(=O)C(Oc2ccc(Cl)cc2)C1CNc1ccccc1 (stereo unspecified)
6 | . | C#CCn1cnc2c(oc3ccccc32)c1=O
-12 | . | CCCn1c(N)c(C(=O)CSc2nnc(-c3ccco3)n2-c2ccccc2)c(=O)n(C)c1=O
-8 | 3.6 | CC1(C)CC2CC(C)(CN2c2nc(-c3ccco3)cc(C(F)(F)F)n2)C1 (stereo unspecified)
1 | 22 | CCc1ccc(N2CC34C=CC(O3)C(C(=O)O)C4C2=O)cc1 (stereo unspecified)
8 | . | CCOC(=O)c1oc2ccccc2c1COC(=O)c1ccc2c(c1)OCO2
-8 | . | Cc1ccccc1CC(=O)c1ccc(O)cc1O
8 | . | CCOC(=O)c1ccc2c(c1)nc(SCC(=O)C(C)(C)C)n2CC
-5 | . | CN(C)P(=NC(=O)COc1ccc(Cl)cc1Cl)(N(C)C)N(C)C
15 | . | O=C(Nc1sc2c(c1C(=O)O)CCCC2)c1cccs1
27 | . | COc1cccc(/C=C2\SC(N3CCC(C)CC3)=NC2=O)c1OC
-20 | . | CCOc1ccc(-c2c(C#N)c(N)nc(SCC#N)c2C#N)cc1
1 | . | CCN1CC23C=CC(O2)C(C(=O)O)C3C1=O (stereo unspecified)
15 | . | CC(C)NC(=O)/C(C#N)=C/c1ccccc1
-24 | 0.8 | CC1CCCC(NC(=O)CSc2ccccc2Cl)C1C (stereo unspecified)
5 | . | Cc1ccc(S(=O)(=O)NC2CCN(c3ncccn3)CC2)cc1
-4 | -1.7 | CCc1cc2c(cc3c(=O)n(CC(=O)N4CC(C)CC(C)C4)nc(CC)n32)s1 (stereo unspecified)
. | -0.9 | NS(=O)(=O)c1ccc(NC(=O)CCN2C(=O)/C(=C/c3ccc(F)cc3)SC2=S)cc1
15 | -1.5 | O=C(/C=C/c1ccccc1)NCCOc1ccccc1
6 | 0.7 | CCS(=O)(=O)N1CCC(C(=O)NC2CCCCC2C)CC1 (stereo unspecified)
0 | . | O=C(Cc1c[nH]c2ccccc12)OCc1c(F)c(F)c(F)c(F)c1F
5 | 1.0 | CC(C)c1ccc2[nH]c3c(c2c1)CCCC3O (stereo unspecified)
-14 | . | CCc1ccccc1NC(=O)c1sc2[nH]c(=O)c(C(=O)O)cc2c1N
-23 | 2.2 | COc1cc(NC(=O)Nc2ccccc2C)cc(OC)c1
1 | -4.3 | CC1CC(C(F)(F)F)n2ncnc2N1C(=O)CSc1nc2ccccc2o1 (stereo unspecified)

Next records
S aureus helic | MgrA-DNA mod | molecule
-21 | . | CC1CCCN(C(=O)c2cc(-c3ccccc3)n[nH]2)C1 (stereo unspecified)
8 | -2.3 | O=C1C(=O)N(CO)C(c2ccccc2)/C1=C(\O)c1ccccc1 (stereo unspecified)
4 | . | O=C(O)COc1ccc(S(=O)(=O)NCCc2ccccc2)cc1
. | -1.1 | CC(=O)OCc1ccc(/C=C(\C#N)S(C)(=O)=O)o1
. | -1.5 | Cc1c(C)c(C)c(CSc2nc3ccccc3[nH]2)c(C)c1C
-9 | . | CCN(CC(=O)Nc1ccc(NC(C)=O)cc1)C(=O)c1n[nH]c(=O)c2ccccc12
. | 0.2 | Nc1ccc2c(c1)OCCCO2
-10 | . | O=C1C=C(OCc2ccccc2)CN1
-13 | . | O=C(CN1CCc2ccccc21)Nc1ccc(SC(F)F)cc1
. | 9.7 | S=c1[nH]nc(Nc2ccccc2Cl)s1
. | -0.4 | N#Cc1cc([N+](=O)[O-])ccc1Sc1ccc(Cl)cc1
1 | . | COc1ccc(Br)cc1CN(C)C(C)C(=O)Nc1ccc2c(c1)OCO2 (stereo unspecified)
. | 1.1 | COc1ccc(S(=O)(=O)NCCN2CCNC2=O)cc1OC
11 | -0.9 | CN(C)C(=O)CSc1nnc(-c2ccccc2)n1-c1ccc(F)cc1
9 | -0.8 | COc1ccc(OC)c(CCN=C2NS(=O)(=O)C(c3ccc(C)cc3)=C2C)c1
8 | . | O=S(=O)(NCC1CCN(CCc2cccs2)CC1)c1cnc[nH]1
4 | . | COc1ccc(S(=O)c2ccccc2C(=O)O)cc1 (stereo unspecified)
-5 | . | Cc1ccccc1NC(C)C(=O)N/N=C/c1cccs1 (stereo unspecified)
. | -2.8 | NC(=S)C1COc2ccccc2O1 (stereo unspecified)
10 | . | FC(F)Sc1nc2ccccc2s1
17 | 1.2 | N#Cc1cc(SCCC(=O)O)c(N2CCOCC2)cc1C#N
3 | 15 | O=C(/C=C/c1ccccc1)ON1C(=O)CCC1=O
-17 | . | COc1ccccc1NC(=O)C(C)Nc1ccc(C)c(Cl)c1 (stereo unspecified)
-8 | . | O=C(Nc1c(-c2cccs2)nc2ncccn12)c1ccco1
. | 2.2 | O=C1C2C3C=CC(C3)C2C(=O)N1c1ccc(F)c(F)c1 (stereo unspecified)

Of the compounds above, these have a furan ring, fused or not:
S aureus helic | MgrA-DNA mod | molecule
6 | . | C#CCn1cnc2c(oc3ccccc32)c1=O
-12 | . | CCCn1c(N)c(C(=O)CSc2nnc(-c3ccco3)n2-c2ccccc2)c(=O)n(C)c1=O
-8 | 3.6 | CC1(C)CC2CC(C)(CN2c2nc(-c3ccco3)cc(C(F)(F)F)n2)C1 (stereo unspecified)
8 | . | CCOC(=O)c1oc2ccccc2c1COC(=O)c1ccc2c(c1)OCO2
. | -1.1 | CC(=O)OCc1ccc(/C=C(\C#N)S(C)(=O)=O)o1
-8 | . | O=C(Nc1c(-c2cccs2)nc2ncccn12)c1ccco1

Random excerpt: two compounds from above.
S aureus helic | MgrA-DNA mod | molecule
. | 9.7 | S=c1[nH]nc(Nc2ccccc2Cl)s1
. | -1.5 | Cc1c(C)c(C)c(CSc2nc3ccccc3[nH]2)c(C)c1C

The listing picks up; the seven compounds before the break are reprinted first.
S aureus helic | MgrA-DNA mod | molecule
. | -2.8 | NC(=S)C1COc2ccccc2O1 (stereo unspecified)
10 | . | FC(F)Sc1nc2ccccc2s1
17 | 1.2 | N#Cc1cc(SCCC(=O)O)c(N2CCOCC2)cc1C#N
3 | 15 | O=C(/C=C/c1ccccc1)ON1C(=O)CCC1=O
-17 | . | COc1ccccc1NC(=O)C(C)Nc1ccc(C)c(Cl)c1 (stereo unspecified)
-8 | . | O=C(Nc1c(-c2cccs2)nc2ncccn12)c1ccco1
. | 2.2 | O=C1C2C3C=CC(C3)C2C(=O)N1c1ccc(F)c(F)c1 (stereo unspecified)
1 | -0.7 | Cc1ccccc1C(=O)N1CCCCC1CO (stereo unspecified)
6 | . | CCC(=O)NCC(c1ccc2c(c1)OCO2)N1CCOCC1 (stereo unspecified)
-17 | . | CCOC(=O)N1CCN(C(=O)C2CC(c3ccc(F)cc3)=NO2)CC1 (stereo unspecified)
36 | . | C=C(C)C(=O)OCc1ccc(C#N)cc1
-5 | 25 | O=C(/C=C/c1ccco1)CC1(O)C(=O)Nc2ccccc21 (stereo unspecified)
-8 | . | O=C(NCc1cc(F)cc2c1OCOC2)c1ccc(Oc2cc(Cl)cc(Cl)c2)o1
. | -2.1 | COC(=O)C1=C(C)NC2=C(C(=O)CC(c3ccc(OC)c(OC)c3)C2)C1c1ccc(OC)c(OC)c1 (stereo unspecified)
-15 | . | CC(C)NC(=O)CCCN1C(=O)c2ccccc2Sc2ncccc21
6 | 0.5 | CC(C)COc1ccc(Br)cc1C(=O)O
3 | . | CCOc1cc(CNC2CC2)ccc1OC(F)F
. | 0.5 | CCOC(=O)c1cccc2c1-c1ccccc1C2=O
-2 | 2.0 | O=C(O)C1CC(c2ccc(F)cc2)=NO1 (stereo unspecified)
-3 | . | CC(=O)N1CCCc2cc(S(=O)(=O)Nc3ccc4c(c3)OCO4)ccc21
16 | . | CC(NC(=O)c1ccncc1)C1CC2CCC1C2 (stereo unspecified)
-14 | . | Cc1ccc(CNC(=O)CCc2c(C)nc3c(c2C)c(=O)n(C)c(=O)n3C)cc1
8 | -0.1 | Cc1cc(NC(=O)CC2CCCCC2)nc2c1c(=O)oc1ccccc12
12 | -0.9 | CSc1ccc(/C=C2\CC/C(=C\c3ccc(SC)cc3)C2=O)cc1
14 | . | N#CCCC1(CCC#N)S(=O)(=O)CC(c2ccccc2)CS1(=O)=O
13 | . | CN(CC(=O)NC1CCCCCC1)S(=O)(=O)c1ccc2c(c1)c(=O)n(C)c(=O)n2C
8 | . | Cc1cc(C(F)(F)F)n2nc(N)nc2n1
1 | . | CC1=CC(=C(C#N)C#N)C=C(C)N1C(C)C
. | -2.4 | CCOC(=O)c1c(NC(=O)c2cc(S(=O)(=O)C(C)C)c(SC)s2)sc(C)c1C
. | 4.0 | Cc1ccc(Cl)cc1NC(C#N)c1ccccc1 (stereo unspecified)
12 | 1.4 | Cc1cc2c(=O)n(CCOc3ccccc3)cnc2s1
. | -1.5 | O=C(Nc1ccc(-c2nc3cc(Cl)ccc3o2)cc1)c1cc([N+](=O)[O-])ccc1Br

(next part)
S aureus helic | MgrA-DNA mod | molecule
11 | -0.5 | O=C1CSc2ccc(C(=O)NCCC3=CCCCC3)cc2N1
14 | . | O/N=C1/C2C3CC4C5C3C1C5C1(OCCO1)C42 (stereo unspecified)
-7 | 4.6 | Cc1ccc(S(=O)(=O)Nc2ccc3oc(C)c(C(=O)NN)c3c2)cc1
5 | . | CCC(=O)Nc1ccccc1C(=O)O
-2 | . | CN(C)S(=O)(=O)c1ccc(C(=O)Nc2cc(C(F)(F)F)ccc2N2CCOCC2)cc1
-4 | 2.4 | CC1CCCC(NS(=O)(=O)c2cccs2)C1C (stereo unspecified)
4 | . | Cc1cc(C(=O)CSc2nnc(-c3ccc4c(c3)OCO4)o2)c(C)n1C1CCS(=O)(=O)C1 (stereo unspecified)
14 | . | O=C(O)C1CN(C(=O)c2ccccc2)c2cc(Cl)ccc2O1 (stereo unspecified)
-4 | . | CC(C)C(C(=O)O)n1c(-c2cccs2)n[nH]c1=S (stereo unspecified)
5 | . | O=C(Cn1nc(C(=O)O)c2ccccc2c1=O)NC1CCCC1
-3 | 0.6 | CN1CCN(C(=O)c2c(Cl)nc3sccn23)CC1
. | -0.7 | CC(C)Sc1n[nH]c(=O)n1-c1ccccc1
33 | . | Cc1ccc(N(CC(=O)Nc2ccc(C)cc2C)S(=O)(=O)c2c(C)noc2C)cc1
-54 | . | Oc1c(-c2nc3ccccc3s2)sc2ncccc12
8 | 3.2 | Cc1ccccc1N(CC(=O)NC1CCCC1)C(=O)c1csnn1
14 | -1.6 | CCN(CC)C(=O)Cn1c(=O)sc2ccccc21
-8 | . | CC(C)N(C(=O)CSc1n[nH]c(-c2cccs2)n1)C(C)C
-14 | -4.2 | CC1(C)Cc2ccccc2C(=NC(Cc2c[nH]c3ccccc23)C(=O)O)N1 (stereo unspecified)
19 | 0.7 | CCOC(=O)c1ccc(NC2Nc3cc(C)nn3S2)cc1 (stereo unspecified)
-208 | . | CN(C)c1ccc(/C=c2\s/c(=C(/C#N)C(=O)NCCN3CCOCC3)n(Cc3ccco3)c2=O)cc1
3 | -0.5 | CCN(CC)C(=O)Cc1noc2ccccc12
11 | 1.2 | OCC1CCCCCN1 (stereo unspecified)
10 | 3.1 | O=C(NCc1ccccn1)c1ccc2nc(N3CCCCC3)sc2c1
. | -0.8 | O=S(=O)(O/N=C1\CCSc2ccc(F)cc21)c1ccc(Cl)cc1
3 | -0.5 | CC1CC(=O)C=C(O)C1C(=O)OC(C)(C)C (stereo unspecified)

Continuation:
S aureus helic | MgrA-DNA mod | molecule
9 | . | O=c1oc2c(-c3ccc(F)cc3)cc(O)cc2s1
7 | 14 | COc1cccc(-c2nn3c(Cn4cnc5ccccc54)nnc3s2)c1
14 | . | CC(Sc1nnnn1Cc1cccs1)C(=O)Nc1ccc2c(c1)OCCO2 (stereo unspecified)
. | 3.0 | O=C(Nc1nnc(-c2ccc(Cl)cc2Cl)s1)c1ccc(S(=O)(=O)N2CCCC2)cc1
6 | -1.7 | O=C(Cn1c(-c2ccccc2)noc1=O)NCc1ccccc1
. | -0.8 | Cn1c(CSc2cccs2)nnc1SCc1ccccc1
. | 3.0 | O=C(CSc1ncccc1C(F)(F)F)Nc1ccc(C(F)(F)F)cc1
. | -1.4 | Cc1cc(C)c(/C=C(\C#N)S(=O)(=O)c2ccccc2)[nH]1
23 | . | Cc1nc(NC(=O)CSc2ccc3c(c2)OCCO3)c(Cl)cc1Cl
-15 | . | Cc1cc2oc(=O)cc(CSc3nnc(-c4ccoc4C)n3C)c2cc1C
. | 14&0.6 | NNC(=O)c1ccncc1
12 | 0.7 | Cc1ccc(CN2C(=O)CSc3ccc(C(=O)NCC4CCCO4)cc32)cc1 (stereo unspecified)
-4 | . | Cc1cc(Cl)ccc1OCC(=O)Oc1ccc2c(c1)OCO2
7 | 0.2 | O=C(CNS(=O)(=O)c1ccc(Cl)cc1)NN=C1CCCCC1
-5 | 1.9 | CCc1ccc2oc(-c3cc(N=Cc4ccccc4O)ccc3O)nc2c1
-18 | . | OC(COC1=NCNc2cc(Cl)ccc21)c1ccc(F)cc1 (stereo unspecified)
5 | . | O=C1Nc2ccccc2O/C1=C\c1ccc(C(=O)NCCN2CCOCC2)cc1
-2 | . | CCC(C)N(C(=O)CSc1nc2ccccc2c(=O)n1-c1ccccc1)C1CCS(=O)(=O)C1 (stereo unspecified)
-39 | 2.6 | Cc1c(/C=N/O)c2ccccn2c1C(=O)c1ccc(F)cc1
-4 | 1.4 | O=C(NC12CC3CC(CC(C3)C1)C2)N1CCC(O)(c2ccc3c(c2)OCO3)CC1
4 | -1.1 | Cc1ccccc1Nc1nn2c(=O)c3ccc(C(=O)NCCC4=CCCCC4)cc3nc2s1
. | -2.4 | N/C(=N\OC(=O)c1cccs1)c1cccc([N+](=O)[O-])c1
-96 | -8.8 | N#C/C(=C\c1[nH]c2ccccc2c1O)C(=N)N1CCOCC1
7 | . | NNC(=O)COc1ccccc1Cc1ccccc1
25 | . | CC(C)CC1Nc2ccc(C(=O)NCC3COc4ccccc4O3)cc2NC1=O (stereo unspecified)
-6 | . | O=c1cc(N2CCN(c3ccccc3)CC2)[nH]c(=O)n1-c1ccc(Br)cc1
7 | . | CCOc1cc(C2C3=C(CC(C)(C)CC3=O)NC3=C2C(=O)CC(C)(C)C3)cc(Br)c1O
1 | -1.6 | COC(=O)c1cc(C)sc1NC(=O)CN1CCN(Cc2ccccc2)CC1

This is a subset, so the mix of outcomes need not match the whole.
